hNpr1 antagonist: Natriuretic polypeptide receptor (hNpr1) antagonism - Primary qHTS; Atrial natriuretic peptide receptor 1 (Homo sapiens), P16066; Potency, µM (doses to about 46.3 µM), for the others: at the top dose activity change, negative = inhibition, usual class: inhibitors; AID 1347048, 2019; HEK293 hNpr1 GloSensor cGMP, ANP-stimulated luminescence; hit rate 1.6% among 76,000; active = well fitted inhibition curve with a large enough effect; inconclusive = small, poorly fitted or top-dose-only effect; inactive = no such curve, though single readings can be large or run the other way;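 note: nearly all actives have a fitted effect of over 60% in size; nearly all hits also lower the signal before the agonist is added; a reference antagonist and vehicle were the controls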
Target sequence (P16066 whole entry, looked up): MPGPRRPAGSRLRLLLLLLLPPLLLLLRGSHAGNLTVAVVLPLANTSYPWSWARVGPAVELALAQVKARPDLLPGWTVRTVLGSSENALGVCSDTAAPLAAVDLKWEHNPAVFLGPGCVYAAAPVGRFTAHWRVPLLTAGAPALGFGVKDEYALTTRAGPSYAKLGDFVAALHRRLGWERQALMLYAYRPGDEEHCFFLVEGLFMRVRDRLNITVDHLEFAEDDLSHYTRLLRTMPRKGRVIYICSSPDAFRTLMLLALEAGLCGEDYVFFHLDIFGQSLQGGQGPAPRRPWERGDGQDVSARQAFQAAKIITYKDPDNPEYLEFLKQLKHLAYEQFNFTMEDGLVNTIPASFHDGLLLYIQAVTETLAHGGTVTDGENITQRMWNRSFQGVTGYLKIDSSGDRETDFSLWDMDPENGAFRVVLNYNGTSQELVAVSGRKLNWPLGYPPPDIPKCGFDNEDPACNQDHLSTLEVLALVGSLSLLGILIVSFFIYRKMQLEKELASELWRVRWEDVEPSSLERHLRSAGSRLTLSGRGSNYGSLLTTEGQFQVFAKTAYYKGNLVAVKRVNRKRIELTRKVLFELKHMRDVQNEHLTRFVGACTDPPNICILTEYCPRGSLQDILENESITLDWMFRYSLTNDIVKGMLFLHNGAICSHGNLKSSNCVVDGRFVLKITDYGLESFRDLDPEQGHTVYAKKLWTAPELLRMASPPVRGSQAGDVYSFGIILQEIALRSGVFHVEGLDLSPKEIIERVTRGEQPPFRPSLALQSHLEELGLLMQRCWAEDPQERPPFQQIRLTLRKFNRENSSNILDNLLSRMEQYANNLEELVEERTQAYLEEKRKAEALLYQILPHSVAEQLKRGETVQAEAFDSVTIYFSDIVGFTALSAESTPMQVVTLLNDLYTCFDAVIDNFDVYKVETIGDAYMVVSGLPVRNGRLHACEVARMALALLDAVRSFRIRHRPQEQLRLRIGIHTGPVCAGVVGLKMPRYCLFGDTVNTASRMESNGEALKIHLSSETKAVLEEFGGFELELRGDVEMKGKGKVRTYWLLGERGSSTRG
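Compound pre-incubated 30 min at room temperature on GloSensor-loaded HEK293 cells stably carrying hNpr1 and the pGS-40F cGMP biosensor. Stimulation uses hNppA at 0.1 nM final; luminescence is taken at baseline and 20 min post-agonist.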
The depositor's hits bear a star; ? = inconclusive; [ ] = dose if it differs, or a comment. % is set by controls: 0 for no effect and ±100 for the full control effect; potency is the fitted concentration of half-maximal effect.

SMILES | hNpr1 antagonist
COc1cc(F)ccc1-c1nc(N2CCOCC2)cc2c1CN(c1ccccc1)C2=O | 1%[70.6 µM]
COc1cc(C(=O)NCCCn2ccnn2)ccc1OC1CCN(C(C)=O)CC1 | -3%
CC1(CNc2ccccc2)COc2ccc(C(=O)NCc3cccc(F)c3)cc2N1 (stereo unspecified) | -20%[70.6 µM]
COc1cc(F)ccc1-c1ccc2c(n1)c(=O)ncn2CCC(F)(F)F | -2%[70.6 µM]
COCCOCC(=O)N1CCC2(CC1)NCCc1c2[nH]c2ccccc12 | 0%
COCC1CN(C(=O)C2(c3ccc(OC)cc3)CC2)CC12CCOCC2 (stereo unspecified) | -2%
CCC(C)C(=O)N1CCC2(CC1)CN(Cc1ccc(OC)cc1)C2=O (stereo unspecified) | 0%
O=S(=O)(Cc1ccccc1)NC[C@H]1Cn2c(-c3ccc(F)cc3)cnc2CO1 | -2%[70.6 µM]
CCOc1ccc(C(=O)N2CCCC3(C2)NC(=O)N(Cc2ccc(Cl)cc2)C3=O)cc1 (stereo unspecified) | -30%
Cc1cnc(CC2CCCN(C(=O)c3cccnc3)C2)n1Cc1ccc(F)cc1 (stereo unspecified) | 0%
CCOc1cc(=O)n2c(c1C(=O)NCc1ccccc1Cl)CCCC2 | 2%
CCN(CC)Cc1nc(C2(O)CCN(C(=O)COc3ccccc3)CC2)cs1 | 3%[70.6 µM]
CCCCN(C)C(=O)c1c(C)sc2ccn(CCC)c(=O)c12 | -2%
CC(C)N1CC2CCC(C1)N2Cc1ccc(C#N)cc1 | 3%[70.6 µM]
COCC(=O)NCCc1noc(-c2ccccc2)n1 | -2%
O=C(c1cccc(F)c1)N1CCC(c2n[nH]c(=O)n2-c2ccccc2)CC1 | 0%
COC(=O)C1CCCCN1C(=O)CCc1nnc(CCc2ccccc2OC)o1 (stereo unspecified) | 0%
CN1CCN(c2nc3c(c(=O)[nH]2)CCN(CCc2ccccc2)CC3)CC1 | 2%
COc1ccccc1CC(=O)N1CCCc2ncc(C(=O)Nc3nc(C)cs3)cc21 | -15%[70.6 µM]
COc1ccc(C(=O)N2CCC3(CC2)C(OC)CN3c2cccc(F)c2)cn1 (stereo unspecified) | -1%
CC1Oc2ccc(NC(=O)Cc3ccc(F)cc3)cc2CN(Cc2cc(F)cc(F)c2)C1=O (stereo unspecified) | -9%
COc1cc(NC(=O)c2cc3n(n2)CC(c2ccc(Cl)cc2)OC3)cc(OC)c1OC (stereo unspecified) | -22%
COC[C@H]1CCCN1[C@@H]1[C@H](O)[C@H](CO)O[C@@H]1CN(Cc1ccc(F)cc1)Cc1ccc(F)cc1 | 0%
O=C(CCc1nc2ccccc2s1)N1CCC(c2nc(C3CCOCC3)no2)CC1 | 8%
COc1cccc(C(=O)N2CCCC(n3cc(-c4noc(C)n4)nn3)C2)c1 (stereo unspecified) | -1%

Another view of some results above.
hNpr1 antagonist	Structure
3%[70.6 µM]	CCN(CC)Cc1nc(C2(O)CCN(C(=O)COc3ccccc3)CC2)cs1
-2%	CCCCN(C)C(=O)c1c(C)sc2ccn(CCC)c(=O)c12
3%[70.6 µM]	CC(C)N1CC2CCC(C1)N2Cc1ccc(C#N)cc1
-2%	COCC(=O)NCCc1noc(-c2ccccc2)n1
0%	O=C(c1cccc(F)c1)N1CCC(c2n[nH]c(=O)n2-c2ccccc2)CC1
0%	COC(=O)C1CCCCN1C(=O)CCc1nnc(CCc2ccccc2OC)o1 (stereo unspecified)
2%	CN1CCN(c2nc3c(c(=O)[nH]2)CCN(CCc2ccccc2)CC3)CC1
-15%[70.6 µM]	COc1ccccc1CC(=O)N1CCCc2ncc(C(=O)Nc3nc(C)cs3)cc21
-1%	COc1ccc(C(=O)N2CCC3(CC2)C(OC)CN3c2cccc(F)c2)cn1 (stereo unspecified)
-9%	CC1Oc2ccc(NC(=O)Cc3ccc(F)cc3)cc2CN(Cc2cc(F)cc(F)c2)C1=O (stereo unspecified)
-22%	COc1cc(NC(=O)c2cc3n(n2)CC(c2ccc(Cl)cc2)OC3)cc(OC)c1OC (stereo unspecified)
0%	COC[C@H]1CCCN1[C@@H]1[C@H](O)[C@H](CO)O[C@@H]1CN(Cc1ccc(F)cc1)Cc1ccc(F)cc1
8%	O=C(CCc1nc2ccccc2s1)N1CCC(c2nc(C3CCOCC3)no2)CC1
-1%	COc1cccc(C(=O)N2CCCC(n3cc(-c4noc(C)n4)nn3)C2)c1 (stereo unspecified)

Next section.
SMILES | hNpr1 antagonist
Cc1ccn(CC(=O)N2CCCC(CCc3ccccc3C)C2)n1 (stereo unspecified) | 0%
Cc1ccc(OCC(=O)NCCC2CCN(C(=O)Nc3cc(F)cc(F)c3)CC2)cc1 | 0%
C=CCN1C[C@@H]2CN(C(=O)CCc3cccc(OC)c3)C[C@]2(C(=O)O)C1 | 4%
COc1cccc(NC(=O)C2CCN(c3cn[nH]c(=O)c3)C2)c1 (stereo unspecified) | 4%
COc1ccccc1NC(=O)CC1CCCN(c2cnn(C)c(=O)c2)C1 (stereo unspecified) | -22%
COc1ccc(-c2cn3c(n2)CO[C@@H](CNS(=O)(=O)c2ccc(C)cc2)C3)cc1 | 28µM*
CCc1nncn1C1CCN(C(=O)c2cc(-c3cccs3)[nH]n2)C1 (stereo unspecified) | 2%
COCC(=O)Nc1ccc(-c2noc([C@@H]3CCCN3C)n2)cn1 | -1%[70.6 µM]
CCN1C(=O)C2CC3(CCN(C(=O)c4cc5ccccc5[nH]4)CC3)CN2C1=O (stereo unspecified) | -7%
CCN(Cc1noc(C)n1)C(=O)C1CCC(=O)N(Cc2cccc(F)c2)C1 (stereo unspecified) | -2%
O=C(c1ccc2[nH]ccc2c1)N1C[C@@H](CO)[C@H](c2nc(C3CC3)no2)C1 | -4%
C#CCN(C)C(=O)[C@@H]1CCCN1C1(C(=O)NC)CCCCC1 | 0%[70.6 µM]
O=C1CN(Cc2cccc(-c3cccs3)c2)CCN1c1ccc(Cl)nn1 | 0%
Cc1cc2nc(CO[C@H]3CN(C)C[C@H]3F)[nH]c2cc1C | -7%[70.6 µM]
CCC1Oc2ccc(NC(=O)c3ccc4c(c3)OCO4)cc2CN(Cc2ccccc2)C1=O (stereo unspecified) | -2%
N#Cc1ccccc1OCc1nnc(C(=O)N2CCC[C@@H]2c2nc3ccccc3[nH]2)n1-c1ccccc1 | -6%
COc1ccc(CCNC(=O)Cn2c(C)cc3nc4n(c(=O)c32)CCCCC4)cc1OC | 6%
O=C(NCc1cccs1)[C@@H]1C[C@@H](O)[C@H](O)[C@@H]2NC(=S)N(c3ccc(OC(F)(F)F)cc3)[C@@H]21 | -5%
CO[C@H]1C(=O)N(C(C)C)[C@H]1C1CCN(C(=O)c2ccco2)CC1 | 6%
O=C(c1c[nH]c2ccccc12)N1CCC2(CC1)CN(c1ccncn1)CC2CO (stereo unspecified) | 14%
COc1ccc(-c2cn3c(n2)CO[C@@H](CNCc2nccn2C)C3)cc1 | 7%[70.6 µM]
COc1cccc(Cc2nc(-c3nnn4c3COC(c3ccc(Cl)cc3)C4)no2)c1 (stereo unspecified) | 0%
O=C(CN1C(=O)NC(c2ccccc2Cl)C2=C1COC2=O)Nc1cc(F)cc(F)c1 (stereo unspecified) | -20%
CN1CC2(CCN(Cc3cccs3)CC2)CC(c2ccccc2)C1=O (stereo unspecified) | -2%
COc1ccc(OC)c(CN2C[C@H]3[C@H](C2)[S+](=O)([O-])C(C)(C)C(=O)N3CC2CCOCC2)c1 | -2%
(continued)
SMILES | hNpr1 antagonist
CCn1nccc1C(=O)N1CCC(N2C(=O)C(OC)C23CCOCC3)CC1 (stereo unspecified) | -2%
COc1ccc(CC(=O)N2CC[C@@H](CC(=O)O)[C@@H](CCN(C)CCN(C)C)C2)cc1 | 0%[70.6 µM]
O=[S+]1([O-])NCC2(CCCN(Cc3ccccc3)C2)Nc2ccccc21 (stereo unspecified) | -2%
CC(=O)N1CCc2nc(-c3ccc(Cl)cc3)nc(-c3ccccc3)c2C1 | 7%
O=C(CCc1nc(C2CCCN2C(=O)CC2CCCC2)no1)NCc1ccccc1 (stereo unspecified) | 0%
Cc1ccc(CN2CCc3nc(C(=O)NCc4ccccc4)oc3CC2)o1 | 5%[70.6 µM]
COCCn1nc2n(c1=O)CCN(C(=O)Cc1c[nH]c3ccccc13)CC2 | 0%
CCC1c2nccn2CCCN1C(=O)COc1ccc(Cl)cc1C (stereo unspecified) | -3%
COc1cccc(CN2CC[C@H](c3nc4ccccc4s3)C2)c1 | -30%[70.6 µM]
FC(F)(F)c1cccc(-c2cc(C3=CCOCC3)c3cncn3c2)c1 | -19%[70.6 µM]
CCN1CC(c2ccccc2)CC2(CCN(S(=O)(=O)N(C)C)CC2)C1 (stereo unspecified) | -2%
O=C(CN1CC2CC(C1)[C@H]1CCCC(=O)N1C2)NCc1ccccc1 (stereo partly specified) | 1%
COc1ccc(C(=O)N2CCC(N3C(=O)CCC3C(=O)NC(C)C)CC2)cc1OC (stereo unspecified) | 2%
CC(=O)NCCNC(=O)C1CCCN(S(=O)(=O)c2ccccc2)CCC(=O)NCC1 (stereo unspecified) | 8%
CN(C)c1ccc(CN2CCCC(COc3ccccc3C(=O)N3CCCC3)C2)cc1 (stereo unspecified) | 0%
CCn1cc(S(=O)(=O)N2CCCC(c3nc(-c4cnccn4)no3)CCNC(=O)CC2)cn1 (stereo unspecified) | -6%
O=C1CCN(CC2CCCCC2)CCCC(c2nc(-c3cccnc3)no2)CCN1 (stereo unspecified) | 6%
O=C1CCN(C(=O)CN2CCCCCC2)CCCC(c2nc(-c3cnccn3)no2)CCN1 (stereo unspecified) | -1%
Cc1ccc(-c2noc([C@@H]3C[C@@H](O)CN3CC3CC3)n2)cc1F | -5%[70.6 µM]
COCCN1CCOC[C@H]2CCN(C(=O)c3ccco3)C[C@H]21 | -1%
CCc1nc2c(c(-c3ccc(Cl)cc3)n1)CN(Cc1cccc(OC)c1)CC2 | 7%
CN(C)C[C@@H]1CN(C)C[C@H]1NS(=O)(=O)c1cc(F)cc(F)c1 | -4%
COc1ccc(CNC(=O)CN2C(=O)NC3(CCOCC3)C2=O)cc1 | 3%
C=Cc1ccc(Cn2c(=O)c(-c3noc(CC)n3)c3n(c2=O)CCCC3)cc1 | -25%
CCN1C(=O)CCc2cc(NC(=O)NC3CCCC3)ccc21 | -2%
New compounds follow
SMILES | hNpr1 antagonist
CCOc1ccc(C2Cn3nnc(-c4nc(-c5ccc(OC)cc5)no4)c3CO2)cc1 (stereo unspecified) | 1%
c1ccc(-c2nc(-c3cnccn3)no2)c(OC2CCNC2)c1 (stereo unspecified) | 10%
COc1nccc(N2CCC(CC(=O)N3CCCN(c4ncccn4)CC3)CC2)n1 | 22µM*
O=C(Nc1cccc(C(F)(F)F)c1)c1cnc2c(c1)N(C(=O)Cc1cccc(C(F)(F)F)c1)CCC2 | -24%
CCOc1ccc2c(n1)CCN(C(=O)Cc1ccc(C)cc1)C2 | -1%
CCOc1cccc(CN2CC(Oc3ccc(-c4noc(COC)n4)cc3)C2)c1 | ?
COC(=O)CN1C(=O)[C@@H]2C[C@@H](O)CN2C2(CN(Cc3ccccc3Cl)C2)C1=O | 3%[70.6 µM]
O=C(c1cccc(Cl)c1)N1CCC2(CC1)C(=O)NCN2Cc1ccc(Cl)cc1 | 11%
CCC(=O)N1CCCCCC1c1nnc(-c2ccccc2)o1 (stereo unspecified) | 1%
O=C(NC1CC1)c1cc2n(n1)CC(c1ccc3c(c1)OCO3)OC2 (stereo unspecified) | -2%
O=C([C@@H]1C[C@H](Oc2cccnc2)CN1C(=O)Cc1cccc(F)c1)N1CCCC1 | 6%
COc1ccccc1-c1nc(C2CC(=O)N(C3CCCCC3)C2)no1 (stereo unspecified) | 0%
COc1ccc(CN2C[C@H]3CN(Cc4nccs4)CCN3C2=O)cc1 | 1%[70.6 µM]
O=c1c(-c2cccc(C(F)(F)F)c2)ccc2n1C[C@H]1C[C@@H]2CN(S(=O)(=O)c2ccccc2)C1 | 4%
O=C(N[C@@H]1CCN(C(=O)CCCn2cccn2)C[C@H]1O)c1ccccn1 | 4%
COc1ccc(-c2cn3c(n2)CO[C@@H](CNC(=O)CCC(=O)O)C3)cc1 | 8%[70.6 µM]
Fc1ccc(Nc2nc(-c3ccccc3)no2)cc1 | ?
Cc1nccn1C1(C(=O)O)CCN(Cc2ccccc2F)CC1 | -2%
CN(C)CCN(C)[C@@H]1[C@H](O)[C@H](CO)O[C@@H]1CNCc1cccc(Cl)c1 | 4%
Cc1cc(C(=O)N2CCOc3ccc(CCC(N)=O)cc3C2)nn1C | 4%
Cc1cccc(OCCc2noc(C3CN(C(=O)Nc4ccc5c(c4)OCCO5)C3)n2)c1 | ?
CCCCN(Cc1ccccc1)Cc1cn[nH]c1-c1ccc(OC)cc1OC | -1%
CCC(=O)N1CCc2nc(N3CCN(Cc4cccnc4)CC3)sc2C1 | 6%
COCC(=O)NCC12CCC=C1N(C)C(=O)CC2 (stereo unspecified) | 17%
Cc1nc2cc(CNC(=O)CN3C(=O)CN(C)C3=O)ccc2n1C | 4%
The results go on.
SMILES | hNpr1 antagonist
CN1C[C@H](C(=O)NCCOc2ccccc2)C[C@H]1c1cccc(C(F)(F)F)c1 | -16%[70.6 µM]
Cc1nnc(CN2CCOc3c(O)cc(-c4ccccc4C)cc3C2)s1 | -1%
c1ccc(CN2CCC(Nc3ncncn3)C2)cc1 (stereo unspecified) | -4%
Cn1nccc1C(=O)NCCC1CCN(C(=O)Nc2cc(F)cc(F)c2)CC1 | 0%
O=C(NC[C@H]1OC[C@@H](N(Cc2ncc[nH]2)Cc2ncc[nH]2)[C@@H]1O)c1ccccc1 | 4%[70.6 µM]
C[S+](=O)([O-])c1cccc(Nc2n[nH]c(C(O)c3ccccc3)n2)c1 (stereo unspecified) | -9%[70.6 µM]

Compound activity deposited in PubChem by National Center for Advancing Translational Sciences (NCATS).

Not all compounds are listed. The share of hits here may be higher or lower than overall.
